PINK1 expr mod – changes PINK1 expression; PINK1 immunofluorescence, high-content cytometry, 24 h; Potency, µM (highest dose often 76.6 µM), without a hit: at the highest dose activation (PINK1 increase), hits mostly activators; 410,000 compounds, 0.2% hits; active = well fitted activation curve with a large enough effect; inconclusive = small, poorly fitted or top-dose-only effect; inactive = flat fitted curve, though single readings scatter; cell line not stated here;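 also: potency is read from the fitted curve at half-maximal effect; % of control where 0% means no effect; nearly all actives have a fitted effect of over 65% in size; a mitochondrial uncoupler was the plate control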
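PINK1 protein, normally rapidly degraded, was detected by immunofluorescence after 24 hour compound treatment of a stable cell line. Titration data (5 concentrations) came from laser-scanning cytometry, with CCCP-treated wells as controls.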
D2 potentiator – human D2 receptor positive allosteric modulation; P14416; DiscoveRx D2 beta-arrestin cells, luminescence, 90 min; 100% = 57 uM dopamine signal; potentiation, % (test concentration not listed); 360,000 compounds, 0.23% hits; active = potentiation of 50% or more; inconclusive = 30% to 50%; inactive = 30% or less;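 also: compound concentration not given in the record; tested on top of an EC20 dose of dopamine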
Target sequence (P14416 whole entry, looked up): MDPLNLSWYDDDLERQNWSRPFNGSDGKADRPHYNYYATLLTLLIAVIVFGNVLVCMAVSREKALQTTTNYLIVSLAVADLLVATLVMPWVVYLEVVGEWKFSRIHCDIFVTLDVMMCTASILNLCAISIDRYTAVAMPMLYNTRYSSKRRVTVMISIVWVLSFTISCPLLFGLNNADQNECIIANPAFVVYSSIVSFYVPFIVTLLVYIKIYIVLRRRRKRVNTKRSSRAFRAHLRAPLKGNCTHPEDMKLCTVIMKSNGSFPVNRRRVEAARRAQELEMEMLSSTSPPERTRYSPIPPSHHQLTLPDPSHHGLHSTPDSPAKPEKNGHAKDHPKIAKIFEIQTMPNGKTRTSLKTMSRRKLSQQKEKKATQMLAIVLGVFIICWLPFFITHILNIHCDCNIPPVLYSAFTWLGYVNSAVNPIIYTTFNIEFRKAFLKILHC
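PathHunter D2 cells, attached overnight at 37 deg C, received compound in DMSO plus dopamine at EC20 (50 nM final) for 90 min at 37 deg C. Beta-arrestin recruitment was read as luminescence after 1 h with detection reagent at ambient temperature.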
Sfp PPTase inh – blocks B. subtilis Sfp PPTase activity. Q9F4F7. Biochemical Sfp PPTase activity, qHTS. Potency, µM, for inactives: max response, negative = inhibition, hits mostly inhibitors. 310,000 compounds, 3.5% hits. AID 1490; active = well fitted inhibition curve with a large enough effect; inconclusive = small, poorly fitted or top-dose-only effect, or another doubt; inactive = no such curve, though single readings can be large or run the other way;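 also: the enzyme is Sfp with the accession as filed and its product quenches rhodamine fluorescence; potency is read from the fitted curve at half-maximal effect; 0% = enzyme reaction without inhibitor and -100% = no enzyme wells; top concentration of the series not given in the record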
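Reaction rates are the 30-min fluorescence difference (ex 525, em 598 nm) in wells containing 15 nM Sfp, 5 uM rhodamine-CoA and 12.5 uM BHQ-2-YbbR at pH 7.6 with 10 mM MgCl2.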
CtBP-E1A blk – CtBP/E1A binding inhibition. AlphaScreen GST-E1A/His-CtBP binding, 1536-well; stronger effect = lower value; control for the full effect not named in the record. 340,000 compounds, 0.49% hits. activity change, % (test concentration not listed); in the data active means activity change below about -65%; inconclusive means about -30% to -65%; inactive means above about -30%; also: % is scaled to controls: 0 for no effect and ±100 for the full control effect
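Homogeneous bead-based format: GST-tagged E1A captured on glutathione donor beads, His-tagged CtBP on nickel acceptor beads; compounds precede bead addition by 2 h at 37 °C.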
D2 ag – agonists of human D2 dopamine receptor (beta-arrestin). DiscoveRx PathHunter D2 beta-arrestin, luminescence, 90 min; 100% = 57 uM dopamine signal. activation, % (no concentration beside the values). 360,000 compounds, 0.084% hits. AID 624465; in the data active = activation above about 40%; inconclusive = about 15% to 40%; inactive = below about 15%; also: compound concentration not given in the record; the text of the record calls up to 30% inactive
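Agonist mode: compounds alone added to overnight-plated D2 PathHunter cells for 90 min at 37 C, with 57 uM final dopamine (EC100) defining full response. Beta-arrestin recruitment detected by chemiluminescent reagent, read after 1 h at ambient temperature.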
Six1-Eya2 blk – blocks human Six1 binding to Eya2 | Q15475+O00167 | AlphaScreen GST-Six1/His-Eya2 binding, biochemical; stronger effect = lower value; control for the full effect not named in the record | activity change, % (concentration not given with the values) | 360,000 compounds, 0.56% hits; in the data active = activity change below about -65%; inconclusive = about -30% to -65%; inactive = above about -30%; also: % is scaled to controls: 0 for no effect and ±100 for the full control effect
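Compounds are tested against tagged Six1 and Eya2 proteins bridged by glutathione donor and nickel acceptor beads; after a one-hour incubation at 37 °C without light, AlphaScreen emission is recorded.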
TRPV1 potentiator – enhances activation of the human vanilloid receptor TRPV1. potentiation, % at 8.33 µM. 320,000 compounds, 0.02% hits. AID 540277. TRPV1-expressing cells, Fluo-8 calcium influx, capsaicin EC20 potentiation; host cell line not named in the record; control for the full effect not named in the record. Q8NER1; active means potentiation above 80%; inconclusive means 30% to 80%; inactive means below 30%; also: 0% is about no effect
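TRPV1-expressing cells were cultured overnight at 35.5C and loaded with Fluo-8 calcium dye for 40 to 90 min at room temperature. After a 10 s baseline, compound was added and calcium influx was read kinetically for 3 min (ex 480/em 520 nm).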
Starred values were filed as active, the others as inactive; ? = inconclusive; . = no result given; [ ] = another dose, or the depositor's remark.

SMILES | PINK1 expr mod | D2 potentiator | Sfp PPTase inh | CtBP-E1A blk | D2 ag | Six1-Eya2 blk | TRPV1 potentiator
COc1ccc(C(=O)CSc2nnc(-c3cnccn3)n2Cc2ccco2)cc1 | -0.9% | -8 | -25% | -24 | 1.6 | -7 | .
O=C(/C=C/c1ccc(Br)o1)NCc1ccccc1 | -0.5% | -20 | 6.3µM* | -5 | -1.9 | 0 | 7
O=C(COc1ccc(Cl)cc1)Nc1ccc2c(c1)nc1n2CCOC1 | 1.5% | -11 | 5% | -2 | -5.8 | -2 | -6
COc1cc(/C=C/c2ccc3cccc(OC)c3n2)c(O)c([N+](=O)[O-])c1 | 4.4% | -15 | 1% | -4 | -3.8 | -8 | 0
O=C1N(c2ccc(Cl)c(Cl)c2)CN(Cc2ccccc2)CN1n1cnnc1 | 0.2% | 0 | 11% | -3 | -1.7 | 0 | -8
Cc1ccc(S(=O)(=O)N(C)c2ccccc2C(=O)Nc2ccc(F)cc2F)cc1 | 5.4% | -4 | -6% | -5 | -4.6 | -1 | -6
Cc1ccc(C2CC(=O)Nc3sc(C(N)=O)c(N)c32)cc1 (stereo not given) | 5.5%[38.3 µM] | -2 | -8% | 13 | 2.5 | 1 | -5
O=C1CCN(Cc2ccc(O)cc2)CCN1[C@H](CO)Cc1ccccc1 | -0.1% | -10 | 17% | 4 | -0.3 | -4 | 3
CC(NC(=O)CC(c1ccccc1)c1cc(Cl)ccc1O)c1ccccc1 (stereo not given) | 2.8% | -10 | 12% | 7 | -1.8 | 1 | -4
Cc1ccc(N(C(=O)Cn2nnc3ccccc32)C(C(=O)NCc2ccccc2)c2ccccn2)cc1 (stereo not given) | 3.4% | -6 | 4% | 4 | 0.3 | 0 | 10
CN1c2ccccc2C(=O)/C(=C\Nc2ccc(F)cc2F)S1(=O)=O | 3.5% | -3 | 9% | 5 | -2.5 | 10 | -2
Cc1ccc(O)c(Nc2c3ccccc3nc3ccccc23)c1 | ? | 9 | -23% | -26 | 3.7 | ? | 2
C=CCn1c(C)c(/C=C/c2cc[n+](C)cc2)c2ccccc21 | ? | -14 | -3% | 8 | -4.8 | 8 | 2
COc1cccc(N2CCN(C3CC(=O)N(c4ccc(C)c(Cl)c4)C3=O)CC2)c1 (stereo not given) | 8.6%[38.3 µM] | -2 | 16% | -19 | -1.4 | -14 | -29
CN(C(=O)CCn1c(=S)oc2ccccc21)c1ccc(F)cc1 | -1.3% | -7 | 1% | . | 3.6 | -3 | -4
O=C(Cc1cccs1)N/N=C/C=C/c1ccccc1 | 1.0% | -20 | 4% | -3 | -3.7 | -1 | -9
CCc1ccc(NC(=O)Cn2nc(C(F)(F)F)c3c2CCC3)cc1 | 9.5% | -18 | 6% | 2 | -2.0 | 6 | 3
O=C1NCCO1 | 1.6% | -18 | . | -1 | 3.1 | -4 | -2
Cc1ccc(NC(=O)/C=C/C(=O)O)c([N+](=O)[O-])c1 | 1.0% | -13 | 12% | 13 | -3.4 | -2 | -11
CCOC(=O)c1c(C)c(C(=O)NCc2ccco2)c(C)n1C | 1.0% | -5 | 5% | . | 2.0 | -6 | -5
CC1(C)OC(=O)C(=CNCCc2ccc(O)cc2)C(=O)O1 | 1.3% | -5 | 14% | 6 | -1.4 | -3 | 6
Brc1cnc(N2CCCC2)nc1N1CCOCC1 | -1.6% | -2 | 7% | 4 | -2.5 | 1 | -9
CCCCN(CC)S(=O)(=O)c1ccc(C(=O)N=c2sc3cc(NC(C)=O)ccc3n2C)cc1 | ? | 5 | 0% | 24 | -3.4 | 12 | -10
COc1ccc(CN2CCN(C(=O)c3ccco3)CC2)cc1 | -0.6% | 65* | 6% | -1 | 77* | -5 | 27
Cc1cc(=O)c(C(=O)O)cn1Nc1ccc(F)cc1 | -0.9% | 24 | -8% | 2 | -3.3 | 5 | 3
Following part.
SMILES | PINK1 expr mod | D2 potentiator | Sfp PPTase inh | CtBP-E1A blk | D2 ag | Six1-Eya2 blk | TRPV1 potentiator
O=C1c2ccccc2CCc2ccccc21 | 2.8% | -9 | . | 1 | -3.8 | 8 | .
Cc1onc(-c2c(Cl)cccc2Cl)c1C(=O)Nn1cnnc1 | 2.7% | 5 | 21% | 7 | -1.8 | 5 | -19
CO/N=C/C(C#N)=C/c1cc(C(=O)c2ccc(F)cc2)cn1C | -3.5% | -5 | 17% | -1 | 2.4 | 5 | -8
COc1ccc(C(C)(C)C)cc1NC(=O)CCCn1c(=O)oc2ccccc21 | -0.9% | -22 | 11% | -18 | -3.1 | -4 | -19
N#Cc1cccc(Cn2nnc(-c3ccccc3)n2)c1 | -1.3% | -21 | 14% | 9 | -0.5 | 13 | -5
COc1ccc(C(=O)Nc2nnc(CCc3ccccc3)s2)c(OC)c1 | 3.9% | -1 | 1% | -4 | 4.2 | 0 | -2
CCN(CC)C(=O)c1nc[nH]c1C(=O)N1CCN(c2ccccc2)CC1 | 7.1% | -2 | . | 9 | -1.4 | 2 | ?
Cc1ccc(C)c(NC(=S)N2CCCCC2CO)c1 (stereo not given) | -0.9% | -12 | 6% | 9 | -0.2 | -1 | 8
COc1ccc(C(=O)NCc2ccc3c(c2)CCO3)cc1 | 1.5% | -4 | 4% | . | -5.1 | 2 | -19
CCOC(=O)N1CCN(C(=O)CN2C(=O)COc3ccc(C)cc32)CC1 | -1.7% | -7 | 6% | 2 | 0.5 | 9 | -8
COc1ccc(C(=O)OCC(=O)NC2CCCC2)c(OC)c1OC | -0.3% | 1 | 3% | 8 | -4.5 | -7 | 11
O=C(NCc1ccccc1)C1CCN(S(=O)(=O)c2ccc(N3CCCC3=O)cc2)CC1 | 0.7% | 10 | 5% | -2 | -1.9 | 5 | -4
Cc1ccc(/C=N/NC(=O)c2cc(-c3ccncc3)nc3ccccc23)o1 | 3.7% | -2 | -24% | -19 | -0.1 | -8 | -4
Cc1ccc(C(=O)Nc2cccnc2Oc2ccc(Cl)cc2)cc1 | 5.6% | 1 | -4% | 21 | -3.7 | 11 | .
CCCC(=NCC(=O)O)C1=C(O)C(C(=O)OC)C(C)(C)CC1=O (stereo not given) | 1.9% | -12 | 3% | 18 | -2.7 | 6 | 2
O=C(CCNS(=O)(=O)c1ccc(Cl)cc1)NCCc1ccccc1 | -0.9% | -15 | . | -1 | -1.3 | 2 | .
CN=C(C)C1=C(O)C(C(=O)OC)C(C)(C)CC1=O (stereo not given) | -2.5% | 2 | 16% | 1 | -0.1 | -3 | 4
O=C(NCc1cccs1)c1cc(S(=O)(=O)N2CCCCC2)ccc1Cl | 1.2%[38.3 µM] | 0 | 16% | -3 | -1.4 | 0 | 18
CCC(C)(C)NC(=O)c1cccc(NC(=O)C(C)C)c1 | 1.1% | -15 | 7% | 2 | -4.7 | 4 | 4
O=C(CN1CCN(c2ccccc2)CC1)c1c[nH]c2ccccc12 | 5.9% | -12 | 3% | 5 | 1.5 | -7 | 20
CCn1nnnc1SCC(=O)Nc1nc(-c2cccs2)cs1 | -1.7% | -10 | 7% | -7 | -5.6 | -1 | -3
Cc1ccccc1-c1cc2nc(NCCc3ccncc3)n(C)c(=O)c2s1 | -0.6% | -13 | . | -10 | -8.2 | -4 | .
CCOc1ccc2nc(S(=O)(=O)NC(=O)C3(C)CCN3C(=O)CCc3cccs3)sc2c1 (stereo not given) | 0.6% | 4 | . | 1 | 8.5 | -5 | .
CC(C)(C)C(=O)OCc1cn(-c2ccc(Cl)cc2)nn1 | -2.2% | 3 | 6% | 8 | -1.3 | 0 | -20
CCOc1ccc(NC(=O)CSc2nnc(Cn3cnc([N+](=O)[O-])n3)n2C)cc1 | 0.2% | -1 | 17% | 10 | -3.8 | 6 | 0

Part of the list above, with tabs:
compound	PINK1 expr mod	D2 potentiator	Sfp PPTase inh	CtBP-E1A blk	D2 ag	Six1-Eya2 blk	TRPV1 potentiator
CCOC(=O)N1CCN(C(=O)CN2C(=O)COc3ccc(C)cc32)CC1	-1.7%	-7	6%	2	0.5	9	-8
COc1ccc(C(=O)OCC(=O)NC2CCCC2)c(OC)c1OC	-0.3%	1	3%	8	-4.5	-7	11
O=C(NCc1ccccc1)C1CCN(S(=O)(=O)c2ccc(N3CCCC3=O)cc2)CC1	0.7%	10	5%	-2	-1.9	5	-4

The list continues.
SMILES | PINK1 expr mod | D2 potentiator | Sfp PPTase inh | CtBP-E1A blk | D2 ag | Six1-Eya2 blk | TRPV1 potentiator
COc1ccccc1/C=N/OC(=O)c1ccc(C)cc1 | 1.6% | -5 | -17% | 7 | -5.7 | 14 | -4
Cc1cc(-c2ccc(C)c(S(=O)(=O)NCC3CCN(Cc4cccc(F)c4)CC3)c2)on1 | 1.4% | -32 | 8% | -13 | 0.2 | -12 | 1
CC1Oc2ccccc2N(CC(=O)N2CCCCCC2)C1=O (stereo not given) | 0.9% | -3 | -5% | -1 | 0.6 | -4 | -4
COC(CN(C)S(=O)(=O)c1cc2c3c(c1)CCC(=O)N3CCC2)OC | -0.4% | -2 | 28% | 2 | -4.6 | 0 | 3
CC1C=CCC2C(=O)N(c3cc(Cl)ccc3O)C(=O)C12 (stereo not given) | 7.8% | -3 | 18% | ? | -5.7 | ? | -1
CC(C)n1nc(C(=O)OCC(=O)N(C)C2CCS(=O)(=O)C2)c2ccccc2c1=O (stereo not given) | -6.2% | -8 | 21% | 2 | -1.9 | 3 | -7
COc1ccccc1/C=C/C(=O)OCC(=O)NCc1ccco1 | 3.4% | -7 | 13% | 11 | -3.7 | -8 | -6
c1ccc(Oc2ccccn2)cc1 | 0.6% | -4 | . | 0 | -2.7 | 1 | .
O=C(Nc1cnc2ccccn2c1=O)c1ccc(Cl)cc1 | ? | -4 | 30% | 6 | 0.7 | 1 | -17

No new results follow: five of the compounds above.
SMILES | PINK1 expr mod | D2 potentiator | Sfp PPTase inh | CtBP-E1A blk | D2 ag | Six1-Eya2 blk | TRPV1 potentiator
CC1C=CCC2C(=O)N(c3cc(Cl)ccc3O)C(=O)C12 (stereo not given) | 7.8% | -3 | 18% | ? | -5.7 | ? | -1
CC(C)n1nc(C(=O)OCC(=O)N(C)C2CCS(=O)(=O)C2)c2ccccc2c1=O (stereo not given) | -6.2% | -8 | 21% | 2 | -1.9 | 3 | -7
COc1ccccc1/C=C/C(=O)OCC(=O)NCc1ccco1 | 3.4% | -7 | 13% | 11 | -3.7 | -8 | -6
c1ccc(Oc2ccccn2)cc1 | 0.6% | -4 | . | 0 | -2.7 | 1 | .
O=C(Nc1cnc2ccccn2c1=O)c1ccc(Cl)cc1 | ? | -4 | 30% | 6 | 0.7 | 1 | -17

Source: PubChem (National Center for Advancing Translational Sciences (NCATS))

Rows were taken by chance; about 3.7% have a hit in one of these screens.
